D2 potentiator – human D2 receptor positive allosteric modulation; DiscoveRx D2 beta-arrestin cells, luminescence, 90 min; 100% = 57 uM dopamine signal; 0.23% of 360,000 active; potentiation, % (test concentration not listed); AID 624464; active = potentiation of 50% or more; inconclusive = 30% to 50%; inactive = 30% or less;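 note: compound concentration not given in the record; tested on top of an EC20 dose of dopamine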
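PathHunter D2 cells, attached overnight at 37 deg C, received compound in DMSO plus dopamine at EC20 (50 nM final) for 90 min at 37 deg C. Beta-arrestin recruitment was read as luminescence after 1 h with detection reagent at ambient temperature.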
PINK1 expr mod – PINK1 expression modulation. PINK1 immunofluorescence, high-content cytometry, 24 h. Potency, µM (highest dose often 76.6 µM), for the others: at the top dose activation (PINK1 increase), usual class: activators. 0.2% of 410,000 active. AID 624263; active = well fitted activation curve with a large enough effect; inconclusive = small, poorly fitted or top-dose-only effect; inactive = flat fitted curve, though single readings scatter; cell line not stated here;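 note: potency is the fitted concentration of half-maximal effect; % of control where 0% means no effect; nearly all actives have a fitted effect of over 65% in size; a mitochondrial uncoupler was the plate control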
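Stable cell line, 250 cells/well, 12 h attachment; compounds pinned at 5 concentrations, 24 h; CCCP control. Fixed with nuclear dye, primary antibodies 12 h at 10 degrees C, secondary plus cell stain; laser-scanning cytometer read.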
TRPML1 agonist – activates the human TRPML1 channel; Q9GZU1; TRPML1-expressing cells, Ca2+ dye fluorescence, FDSS; host cell line not named in the record; reference of the full effect not given here; activation, % (test concentration not listed); 0.12% of 410,000 active; in the data active = activation above about 50%; inconclusive = about 30% to 50%; inactive = below about 30%; note: 0% is about no effect; the text of the record puts the active cut at 80%
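Calcium fluorescence on an FDSS kinetic reader gave the read-out. Tet-induced TRPML1-DL cells were plated overnight, dye-loaded (Ca8 with quencher, 45-90 min, room temperature, dark), then read 110 s after compound addition, and again 110 s after 4uM final 54-4 (EC80).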
D2 ag – human D2 receptor agonism in beta-arrestin assay. DiscoveRx PathHunter D2 beta-arrestin, luminescence, 90 min; 100% = 57 uM dopamine signal. activation, % (test concentration not listed). P14416. 0.084% of 360,000 active; in the data active = activation above about 40%; inconclusive = about 15% to 40%; inactive = below about 15%; note: compound concentration not given in the record; the text of the record calls up to 30% inactive
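DiscoveRx PathHunter D2 beta-arrestin cells (2,100/well) attached overnight, then compound-stimulated 90 min at 37 C in HBSS/10 mM HEPES/0.1% Tween-20 buffer; beta-galactosidase complementation read by luminescence after 1 h at ambient temperature. Dopamine 57 uM final (EC100) as control.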
CtBP-E1A blk – CtBP/E1A binding inhibition. activity change, % (concentration not given with the values). AlphaScreen GST-E1A/His-CtBP binding, 1536-well; hits give low values; control for the full effect not named in the record. 0.49% of 340,000 active. AID 651724; in the data active means activity change below about -65%; inconclusive means about -30% to -65%; inactive means above about -30%; note: % is set by controls: 0 for no effect and ±100 for the full control effect
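AlphaScreen with 125 nM GST-E1A and 125 nM His-CtBP (5X stocks) in Tris pH 8.0, 300 mM NaCl, BSA, Tween 20, TCEP. Compounds preincubated 2 h at 37 deg C, then glutathione donor/nickel acceptor beads added for 1 h at 37 deg C in dark.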
Six1-Eya2 blk – inhibitors of human Six1/Eya2 interaction; Q15475+O00167; activity change, % (no concentration beside the values); AlphaScreen GST-Six1/His-Eya2 binding, biochemical; hits give low values; control for the full effect not named in the record; 0.56% of 360,000 active; in the data active = activity change below about -65%; inconclusive = about -30% to -65%; inactive = above about -30%; note: % is set by controls: 0 for no effect and ±100 for the full control effect; compound concentration not given in the record
Target sequence (O00167 whole entry, looked up): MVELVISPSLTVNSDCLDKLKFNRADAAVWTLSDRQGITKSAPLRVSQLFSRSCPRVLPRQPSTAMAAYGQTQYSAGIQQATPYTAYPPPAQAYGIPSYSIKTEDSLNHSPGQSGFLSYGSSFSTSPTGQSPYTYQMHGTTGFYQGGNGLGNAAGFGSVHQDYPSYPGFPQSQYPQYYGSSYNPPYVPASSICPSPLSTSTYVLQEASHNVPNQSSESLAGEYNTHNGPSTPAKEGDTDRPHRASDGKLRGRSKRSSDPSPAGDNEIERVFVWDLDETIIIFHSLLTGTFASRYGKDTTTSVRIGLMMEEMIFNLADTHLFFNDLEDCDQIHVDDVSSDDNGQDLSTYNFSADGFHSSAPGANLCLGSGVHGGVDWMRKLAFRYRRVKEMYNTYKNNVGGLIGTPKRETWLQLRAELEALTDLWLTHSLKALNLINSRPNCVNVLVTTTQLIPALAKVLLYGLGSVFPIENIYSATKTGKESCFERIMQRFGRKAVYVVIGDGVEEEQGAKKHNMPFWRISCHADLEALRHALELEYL
Target sequence (Q15475 whole entry, looked up): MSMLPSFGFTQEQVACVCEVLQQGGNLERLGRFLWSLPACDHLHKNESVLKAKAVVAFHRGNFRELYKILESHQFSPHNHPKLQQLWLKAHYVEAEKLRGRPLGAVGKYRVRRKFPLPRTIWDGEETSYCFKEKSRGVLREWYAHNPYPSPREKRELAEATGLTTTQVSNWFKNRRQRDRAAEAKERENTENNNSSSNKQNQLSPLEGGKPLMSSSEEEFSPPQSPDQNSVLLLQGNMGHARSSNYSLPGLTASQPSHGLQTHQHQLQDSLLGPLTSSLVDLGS
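AlphaScreen with GST-Six1 and His-Eya2 (5X mix: 250 nM and 500 nM), glutathione donor and nickel acceptor beads; buffer 50 mM Tris pH 8.0, 300 mM NaCl, 1 mM TCEP; 1 h at 37 C in the dark.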
* hit, by the source's call; ? = inconclusive; / = no result given; & = joins results of further samples; [ ] = another dose, or the depositor's remark.

Order of values: D2 potentiator | PINK1 expr mod | TRPML1 agonist | D2 ag | CtBP-E1A blk | Six1-Eya2 blk
c1ccc(Cn2cc(CN3CCCO3)c(-c3ccc4c(c3)OCO4)n2)cc1
 : -7 | 1.2% | -0.2 | -1.0 | 3 | -7
Clc1cccc(Cl)c1CON/C=N/c1ncnc2sccc12
 : 4 | 3.7% | 2.3 | -0.4 | 6 | 0
CC(=O)Nc1ccc(Oc2ccc(-c3noc(C)n3)cc2)cc1
 : 4 | 3.3% | -0.3 | 0.7 | -1 | 5
Clc1ccc(-c2nc3c4ccccc4ccn3c2CC2CCCCC2)cc1
 : / | 0.6% | -0.4 | / | 3 | 5
O=C(C1CCN(S(=O)(=O)c2c(Cl)cccc2Cl)CC1)N1CCCC1
 : -15 | 1.9% | -0.4 | 1.0 | 16 | 5
Cc1nc(NC(=O)c2ccc([N+](=O)[O-])cc2Cl)sc1C(=O)N(C)C
 : -5 | 1.9% | 1.1 | -1.7 | -4 | -8
COc1ccc(/C=N/Nc2nc(-c3ccc(Cl)cc3)cc(C(F)(F)F)n2)c(OC)c1
 : -17 | 14% | -0.9 | -1.8 | -3 | -3
COc1ccc(CN2CCNC(=O)C2CC(=O)N(C)Cc2ccon2)cc1OC (stereo unspecified)
 : -1 | 1.2% | -0.1 | -3.7 | 11 | 6
O=C(NCC(c1ccco1)N1CCN(c2ccc(F)cc2)CC1)OCc1ccccc1 (stereo unspecified)
 : -15 | -0.6% | -0.2 | 2.7 | 0 | -19
Cc1cc([N+](=O)[O-])ccc1NC(=O)Nc1ccc(F)cc1F
 : 4 | ? | 0.1 | -5.2 | 5 | -3
Cc1ccc(N=c2oc3cc(O)ccc3cc2C(N)=O)cc1
 : -4 | 3.8% | -0.1 | -3.5 | -4 | -23
Cc1ccc(C(O)c2ncc(-c3ccccc3Cl)[nH]2)cc1 (stereo unspecified)
 : -8 | -0.4% | -1.0 | 4.6 | -4 | -11
COc1ccc(Cl)cc1S(=O)(=O)N1CCCC1
 : -11 | 1.9%[38.3 µM] | -0.4 | 0.5 | 16 | 5
O=C(COC(=O)COc1ccccc1)Nc1ccc(Cl)cn1
 : -3 | -0.1% | -0.5 | -3.1 | 7 | 2
N/C(=N\OC(=O)N1c2ccccc2Sc2ccccc21)c1ccc(Br)cc1
 : 86* | 4.3% | 0.3 | ? | -6 | -8
CCOc1ccc(CNS(=O)(=O)c2ccc(-c3ccc(=O)[nH]n3)o2)cc1OC
 : -23 | -2.0% | 0.1 | -5.9 | -8 | -2
O=C(NCCOCC(F)(F)C(F)F)c1cc(F)c(F)cc1Cl
 : -13 | -2.9%[38.3 µM] | -0.6 | -0.6 | 17 | 6
CCOC(=O)c1cc2c(=O)n3cccc(C)c3nc2n(Cc2ccco2)c1=NC(=O)c1cccnc1
 : -13 | 8.4% | 0.2 | 4.5 | -6 | -10
CCOc1ccc(-n2c(=S)sc3c(=O)[nH]c(SCC(=O)NCC4CCCO4)nc32)cc1 (stereo unspecified)
 : -2 | -1.5% | -1.0 | -0.8 | 5 | 27
COc1ccc(-n2c(SCC(N)=O)nc3nc4c(cc3c2=O)COC(C)(C)C4)cc1
 : 7 | -1.5% | -0.6 | -2.7 | 10 | -2

Shown as a hit in D2 potentiator, of those listed so far:
smiles	D2 potentiator	PINK1 expr mod	D2 ag	CtBP-E1A blk	Six1-Eya2 blk
N/C(=N\OC(=O)N1c2ccccc2Sc2ccccc21)c1ccc(Br)cc1	86*	4.3%	?	-6	-8

Part of the list above, with tabs.
molecule	D2 potentiator	PINK1 expr mod	TRPML1 agonist	D2 ag	CtBP-E1A blk	Six1-Eya2 blk
c1ccc(Cn2cc(CN3CCCO3)c(-c3ccc4c(c3)OCO4)n2)cc1	-7	1.2%	-0.2	-1.0	3	-7
COc1ccc(-n2c(SCC(N)=O)nc3nc4c(cc3c2=O)COC(C)(C)C4)cc1	7	-1.5%	-0.6	-2.7	10	-2

Returning to the listing; the four compounds before the break are reprinted first.
Order of values: D2 potentiator | PINK1 expr mod | TRPML1 agonist | D2 ag | CtBP-E1A blk | Six1-Eya2 blk
O=C(NCCOCC(F)(F)C(F)F)c1cc(F)c(F)cc1Cl
 : -13 | -2.9%[38.3 µM] | -0.6 | -0.6 | 17 | 6
CCOC(=O)c1cc2c(=O)n3cccc(C)c3nc2n(Cc2ccco2)c1=NC(=O)c1cccnc1
 : -13 | 8.4% | 0.2 | 4.5 | -6 | -10
CCOc1ccc(-n2c(=S)sc3c(=O)[nH]c(SCC(=O)NCC4CCCO4)nc32)cc1 (stereo unspecified)
 : -2 | -1.5% | -1.0 | -0.8 | 5 | 27
COc1ccc(-n2c(SCC(N)=O)nc3nc4c(cc3c2=O)COC(C)(C)C4)cc1
 : 7 | -1.5% | -0.6 | -2.7 | 10 | -2
Cn1c(=O)c(=O)n(C)c2cc(S(=O)(=O)CCC(=O)Nc3ccccc3C(F)(F)F)ccc21
 : -4 | 3.7% | -0.7 | -1.4 | -8 | -11
O=C(Cc1cccc(NC(=O)C2CCCN(C(=O)C3CCC3)C2)c1)Nc1cccc(C(=O)N2CCCCC2)c1 (stereo unspecified)
 : 1 | 0.8% | -0.5 | 1.6 | 4 | -1
CC1CC(=O)C2=C(C1)Nc1ncnn1C2c1ccccc1 (stereo unspecified)
 : -4 | 1.9%[38.3 µM] | 0.4 | -2.2 | 0 | -1
CCOc1ccc(NC(=O)CCC(=O)Nc2cc(OC)c(NC(=O)c3ccco3)cc2OC)cc1
 : -5 | 9.5% | 0.1 | -2.4 | -18 | -11
Cc1ccc(C)c2c1[nH]c1ccccc12
 : 2 | 3.0% | 0.6 | -1.5 | -1 | 4
CC(=O)OCc1cc(=O)n(C)c(=O)n1C
 : -7 | -2.4%[38.3 µM] | 1.2 | -1.3 | 3 | 3
COc1cc2c(cc1OC)C(C)N(C(=O)c1cc3n(n1)C(C(F)(F)F)CC(c1ccco1)N3)CC2 (stereo unspecified)
 : 8 | 0.4% | 0.6 | -3.5 | -4 | -22
CN(C)CC(=O)N1c2ccccc2CCc2ccc(NC(=O)c3ccc(N)cc3)cc21
 : -2 | 0.1% | 1.0 | -2.3 | -1 | -2
Cc1cc(C)n(-c2ccc(C(=O)OCC(=O)c3c(N)n(C)c(=O)n(C)c3=O)cc2)n1
 : -10 | 0.2% | -0.4 | -1.4 | -17 | -8
Cc1ccc(C(=O)N2CCN(c3ccc(NC(=O)c4ccc5c(c4)OCCO5)cc3)CC2)cc1
 : -8 | 4.4% | 2.1 | -0.7 | 5 | 0
CC1(C)C(=O)Nc2ccccc2N1C(=O)c1ccc([N+](=O)[O-])cc1
 : ? | -0.2% | 1.6 | ? | -22 | 5
Cc1cccc(N(Cc2ccccc2)C(=O)c2ccc(CS(C)(=O)=O)cc2)c1
 : 11 | 0.3% | 1.1 | -1.0 | -4 | 0
Cc1ccc(NC(=O)Cn2cnc3c(nnn3Cc3ccc(F)cc3)c2=O)cc1
 : -3 | 1.8% | 0.4 | -6.1 | -1 | 7
O=C(Cc1ccccc1)Nc1ccc2c(c1)C(=O)N(CC1CCCO1)C2=O (stereo unspecified)
 : 1 | 1.3% | 0.1 | -1.8 | 1 | -5
Cc1ccc(C(=O)OCC(=O)NCc2cccs2)cc1S(=O)(=O)N1CCOCC1
 : -22 | 0.4% | 1.0 | -17 | -11 | -8
CCCCc1nnc(NC(=O)CCN2C(=O)C3CC=CCC3C2=O)s1 (stereo unspecified)
 : 0 | 4.1% | 0.9 | -0.1 | 0 | 17
CCCn1c2c(c(O)c(C(=O)Nc3ccc(OC)cc3)c1=O)CCCC2
 : -4 | 2.0% | -0.4 | 0.9 | 4 | -19
Cc1cc2c(cc1C)C(c1cccc(F)c1)CC(=O)N2 (stereo unspecified)
 : 0 | 8.8% | -0.5 | 8.0 | / | -1
COc1ccc(C(=O)Nc2ccc(S(=O)(=O)N3CCOCC3)cc2)cc1[N+](=O)[O-]
 : -4 | 2.0% | 0.2 | -5.7 | -11 | -2
COc1cccc(-c2cc(C(F)(F)F)nc(-n3ccc([N+](=O)[O-])n3)n2)c1
 : 2 | 5.4% | 0.9 | -8.9 | / | -5

(list continues)
Order of values: D2 potentiator | PINK1 expr mod | TRPML1 agonist | D2 ag | CtBP-E1A blk | Six1-Eya2 blk
O=C(c1ccco1)N1CCC(c2nc3ccccc3[nH]2)CC1
 : -14 | 0.0% | 1.0 | -1.2 | 9 | -3
O=C(NCCc1ccccc1)C1CCC(CNS(=O)(=O)c2ccccc2)CC1 (stereo unspecified)
 : -5 | -0.8%&3.2% | -0.2&0.5 | -3.9 | 2 | 8
COc1ccc(S(=O)(=O)NCC(=O)N(CC(=O)NCC2CCCO2)c2cc(C)ccc2C)cc1 (stereo unspecified)
 : -15 | -0.2% | 0.3 | -5.0 | -1 | -4
O=C(NNC(=O)c1ccc(Oc2cc(Cl)cc(Cl)c2)o1)c1ccccc1
 : -5 | 7.1% | 1.3 | 1.1 | / | -3
CCCC(=O)Nc1cc(Cl)ccc1N1CCN(C(=O)CC)CC1
 : 17 | / | 1.8 | 1.1 | 11 | 5
O=C(CCCN1C(=O)c2ccccc2C1=O)NC1=NCCS1
 : 7 | -1.1% | 0.5 | 2.2 | 11 | -5
CCN(CC(=O)Nc1c(F)cccc1F)C(=O)CCc1c[nH]c2ccccc12
 : -6 | -0.5% | 0.8 | 1.8 | -22 | 0
COC(=O)c1[nH]c2ccc(C)cc2c1NC(=O)C(C)N1CCN(C2CCCCC2)CC1 (stereo unspecified)
 : -22 | -0.8% | -0.3 | -1.8 | 0 | 9
O=C1c2ccccc2C(c2nnnn2-c2ccc3c(c2)OCCO3)N1CCOc1ccccc1 (stereo unspecified)
 : / | 0.7% | 0.3 | / | -28 | 4
Cc1cccc2c1NC(=O)C2(O)N1CCCC(C)C1 (stereo unspecified)
 : 0 | 0.4% | 0.1 | 4.9 | -5 | -20
COc1cccc(OC)c1OCCN1CCC(C(=O)NC(c2ccc3c(c2)OCO3)c2ccccn2)CC1 (stereo unspecified)
 : -21 | -1.4% | 1.0 | -5.2 | 0 | 4
CSC1=NCCN1C(=O)c1ccc(S(=O)(=O)N(C)C)cc1
 : -5 | 3.0% | -0.2 | -3.2 | 8 | 4
OCCC1CN(Cc2ccc(C(F)(F)F)cc2)CCN1Cc1ccccc1 (stereo unspecified)
 : -14 | 7.7% | 0.4 | 0.3 | 5 | -1
CCn1ncc(C2=NOC(C(=O)Nc3c(C)n(C)n(-c4ccccc4)c3=O)C2)c1C (stereo unspecified)
 : -5 | 0.3% | 0.2 | 0.5 | 3 | 3
CCOC(=O)C1C2C=CC3(CN(Cc4cccs4)C(=O)C13)O2 (stereo unspecified)
 : -4 | 1.7% | -0.2 | -1.0 | 6 | 1
COc1ccc(-c2cc3ccccc3n2CC(O)CNCCO)cc1 (stereo unspecified)
 : -17 | 1.8% | 0.6 | -2.2 | -7 | -9

Screening data (PubChem BioAssay)
